rRNA inh HTS: inhibitors of bacterial rRNA selective over humanized ribosomes. E. coli WT GFP vs humanized-ribosome RFP mutants, fluorescence, 24 h; hits give low values; DMSO median 0, no signal -100. GFP signal change (wild-type ribosome), % (no concentration beside the values). 350,000 tested, 1.6% active. AID 720706;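 active = significant combined selectivity score with lowered wild-type GFP, culture density cut under 30%, mutant RFP and density less affected; inactive = any of these conditions unmet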; also: one replicate is shown; some compounds called inactive have numbers as strong as hits
FGF22 binding: FGF22 (human) thermal shift binding. 340,000 tested, 1.5% active. calls only at 9.99 µM. recombinant FGF22 thermal shift, SYPRO orange fluorescence; percent of sucrose octasulfate shift, DMSO zero. Q9HCT0;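 active = melting point raised past a set limit in the mean and every replicate; three in four hits are not shown here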
Target sequence (Q9HCT0 whole entry, looked up): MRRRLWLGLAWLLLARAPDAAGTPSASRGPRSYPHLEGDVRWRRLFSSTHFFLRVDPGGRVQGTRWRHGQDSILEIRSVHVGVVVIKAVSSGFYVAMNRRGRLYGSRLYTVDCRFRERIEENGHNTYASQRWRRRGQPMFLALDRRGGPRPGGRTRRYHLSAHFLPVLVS
MLL AF4-AF9 inh: inhibitors of human MLL-AF4/AF9 interaction; P42568; AlphaScreen, biotin-AF4 peptide binding to FLAG-AF9; inhibition, % at 10 µM; 350,000 tested, 0.47% active; AID 651704;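 active = every replicate reaching a set inhibition limit, whatever the replicate mean, cut at about 25% in these data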;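 also: 0% = plate neutral control median and 100% = total signal loss; the record names both 10 and 1 µM as test concentration; the first replicate is given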
Target sequence (P42568 whole entry, looked up): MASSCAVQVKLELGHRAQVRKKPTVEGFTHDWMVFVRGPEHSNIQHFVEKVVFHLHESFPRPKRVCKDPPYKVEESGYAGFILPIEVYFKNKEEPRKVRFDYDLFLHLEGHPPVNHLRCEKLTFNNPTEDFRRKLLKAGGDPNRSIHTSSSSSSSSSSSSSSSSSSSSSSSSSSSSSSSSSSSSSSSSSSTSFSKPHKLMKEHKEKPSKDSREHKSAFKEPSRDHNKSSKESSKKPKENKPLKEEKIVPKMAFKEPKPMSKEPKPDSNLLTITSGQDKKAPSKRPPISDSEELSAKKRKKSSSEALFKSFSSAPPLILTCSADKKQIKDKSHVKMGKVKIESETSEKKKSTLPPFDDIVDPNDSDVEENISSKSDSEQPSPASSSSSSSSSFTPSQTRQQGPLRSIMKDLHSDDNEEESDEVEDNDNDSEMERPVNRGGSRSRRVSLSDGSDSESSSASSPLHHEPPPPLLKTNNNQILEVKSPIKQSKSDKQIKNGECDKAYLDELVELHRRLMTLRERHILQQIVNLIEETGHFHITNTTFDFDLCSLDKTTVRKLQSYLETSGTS
rRNA inh HTS OD600: further read-out of rRNA inh HTS, marked with its call; OD600 change, %; measured here: OD600 growth;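 optical density of the mix in the first replicate; 0 = DMSO median and -100 = no signal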
rRNA inh HTS RFP: also measured in rRNA inh HTS; calls as there; RFP signal change, %; measured here: RFP humanized mutant strains;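 first replicate; 0 = DMSO median and -100 = no signal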
* hit, by the source's call; i = inactive; x = no result given; + = active, no number; & = joins results of further samples. A portion of the library (hit frequency here may not be typical).

SMILES	rRNA inh HTS	rRNA inh HTS OD600	rRNA inh HTS RFP	FGF22 binding	MLL AF4-AF9 inh
Cc1ccc(S(=O)(=O)Nc2ccc3c(c2)C(=O)N([C@@H](C)CO)C[C@H](C)[C@H](CN(C)C(=O)Nc2cccc4ccccc24)OCCCC[C@H](C)O3)cc1	2	5	1.2	i	-2.3
COc1ccc(NC(=O)N(C)C[C@@H]2Oc3ccc(NS(=O)(=O)c4ccccc4)cc3CC(=O)N([C@@H](C)CO)C[C@H]2C)cc1	5	8	-1.2	i	0.4
Cc1noc(C)c1S(=O)(=O)Nc1ccc2c(c1)C(=O)N([C@@H](C)CO)C[C@H](C)[C@H](CN(C)Cc1ccccc1)O2	1	10	-2.6	i	1.5
CN(C)CC(=O)Nc1ccc2c(c1)[C@H]1C[C@@H](CC(=O)NCc3ccc4c(c3)OCO4)O[C@@H](CO)[C@H]1O2	4	15	-1.9	i	1.6
C[C@@H]1CN([C@@H](C)CO)C(=O)c2cc(-c3cncnc3)cnc2O[C@@H]1CN(C)C(=O)Cc1ccccn1	2	9	0.2	i	-2.8
CO[C@H]1CN(C)C(=O)c2ccc(NC(=O)NC(C)C)cc2OC[C@H](C)NC[C@H]1C	0&1&11	1&3&10	-0.5&0.1&3.0	i	-2.4&-3.1
COC(=O)C[C@H]1CC[C@@H]2[C@@H](COc3ccc(NC(=O)c4ccc(F)cc4)cc3C(=O)N2C)O1	-3	-4	1.6	i	0.7
C[C@H](CO)N1C[C@H](C)[C@H](CN(C)Cc2ccccc2C(F)(F)F)OCc2ccccc2-c2c(n(C)c3ccccc23)C1=O	4	-12	-1.4	i	-4.3
COc1ccc(-n2nnnc2C2c3ccccc3C(=O)N2C2CCN(Cc3ccccc3)CC2)cc1 (centres undefined)	3	-7	0.6	i	3.9
C[C@H]1CN([C@@H](C)CO)C(=O)c2c(c3ccccc3n2C)-c2ccccc2CO[C@H]1CN(C)Cc1ccc(-c2ccccc2)cc1	3	9	-2.6	i	2.1

Shown field by field: entries from further up.
COc1ccc(NC(=O)N(C)C[C@@H]2Oc3ccc(NS(=O)(=O)c4ccccc4)cc3CC(=O)N([C@@H](C)CO)C[C@H]2C)cc1
  rRNA inh HTS = 5; rRNA inh HTS OD600 = 8; rRNA inh HTS RFP = -1.2; FGF22 binding = i; MLL AF4-AF9 inh = 0.4

C[C@@H]1CN([C@@H](C)CO)C(=O)c2cc(-c3cncnc3)cnc2O[C@@H]1CN(C)C(=O)Cc1ccccn1
  rRNA inh HTS = 2; rRNA inh HTS OD600 = 9; rRNA inh HTS RFP = 0.2; FGF22 binding = i; MLL AF4-AF9 inh = -2.8

Cc1noc(C)c1S(=O)(=O)Nc1ccc2c(c1)C(=O)N([C@@H](C)CO)C[C@H](C)[C@H](CN(C)Cc1ccccc1)O2
  rRNA inh HTS = 1; rRNA inh HTS OD600 = 10; rRNA inh HTS RFP = -2.6; FGF22 binding = i; MLL AF4-AF9 inh = 1.5

CO[C@H]1CN(C)C(=O)c2ccc(NC(=O)NC(C)C)cc2OC[C@H](C)NC[C@H]1C
  rRNA inh HTS = 0&1&11; rRNA inh HTS OD600 = 1&3&10; rRNA inh HTS RFP = -0.5&0.1&3.0; FGF22 binding = i; MLL AF4-AF9 inh = -2.4&-3.1

The list goes on.
SMILES	rRNA inh HTS	rRNA inh HTS OD600	rRNA inh HTS RFP	FGF22 binding	MLL AF4-AF9 inh
C/C=C/c1ccc([C@@H]2[C@H](CO)N(CC3CC3)[C@H]2CNC(=O)c2ccccc2)cc1	2	-9	4.7	i	-5.4
C[C@@H]1CN([C@@H](C)CO)C(=O)c2cccc(NC(=O)c3ccncc3)c2O[C@H]1CN(C)Cc1ccncc1	5	8	0.2	i	0.1
COc1ccc(NC(=O)N(C)C[C@@H]2Oc3c(NC(=O)c4cc(C)nn4C)cccc3C(=O)N([C@@H](C)CO)C[C@@H]2C)cc1	-4	3	-0.1	i	-1.1
COc1cccc(-c2cn(CC[C@@H]3CC[C@@H](NS(=O)(=O)Cc4ccccc4)[C@@H](CO)O3)nn2)c1	1	9	1.5	i	2.4
Cc1ccc(-c2ccc([C@@H]3[C@H]4CN(C(=O)Nc5ccccc5)CCCCN4[C@H]3CO)cc2)cc1	-41	-36	7.8	i	-3.7
Cc1cc(C(=O)Nc2cccc3c2O[C@@H](CN(C)C(=O)NC2CCCCC2)[C@H](C)CN([C@H](C)CO)C3=O)n(C)n1	-1	0	-2.6	i	-2.4
CO[C@H]1CN(C)C(=O)c2cc(NC(=O)NC(C)C)ccc2OC[C@@H](C)N(S(C)(=O)=O)C[C@@H]1C	1	1	-1.1	i	-7.7
CN1C(=O)c2cc(NC(=O)c3ccc(Cl)cc3)ccc2OC[C@H]2O[C@@H](CC(=O)O)CC[C@@H]21	0	-1	-4.0	i	-3.7
C[C@@H]1CCCCO[C@@H](CN(C)S(=O)(=O)c2ccc(F)cc2)[C@@H](C)CN([C@@H](C)CO)C(=O)c2cc(NS(=O)(=O)c3cccs3)ccc2O1	-1	-1	-1.0	i	-0.5
COCCNC(=O)C[C@@H]1C=C[C@H](NC(=O)NC2CCCC2)[C@H](CO)O1	-1	6	1.7	i	-1.5
CN1C(=O)c2cc(NC(=O)C3CCOCC3)ccc2OC[C@@H]2O[C@@H](CC(=O)NCCc3ccncc3)CC[C@@H]21	1	8	-1.2	i	-0.7
C[C@@H]1CN([C@H](C)CO)C(=O)Cc2cc(NS(=O)(=O)c3ccc(F)cc3)ccc2O[C@H]1CN(C)Cc1ccc(Oc2ccccc2)cc1	4	9	4.4	i	0.2
Cc1c(C(=O)NCc2ccc3c(c2)OCO3)sc(=O)n1Cc1cccc(F)c1	-19	-23	-1.0	i	-0.9
Cn1cnc(CCNC(=O)C[C@@H]2CC[C@@H]3[C@H](COC[C@@H](O)CN3C(=O)C3CCCC3)O2)c1	2	-4	-1.1	i	-1.2
C[C@@H]1CN([C@H](C)CO)C(=O)c2c(c3ccccc3n2C)-c2ccccc2CO[C@@H]1CN(C)S(=O)(=O)c1ccc([N+](=O)[O-])cc1	2	3	-1.9	i	11
COc1ccc(S(=O)(=O)N(C)C[C@H]2OCCCC[C@@H](C)Oc3ccc(NC(=O)CCCN(C)C)cc3C(=O)N([C@@H](C)CO)C[C@H]2C)cc1	2	1	-2.9	i	1.6
CCc1ccc([C@H]2[C@@H]3C(=O)C[C@@H]4C(=O)NC(=O)[C@@H]4[C@@H]3CN2S(=O)(=O)c2ccc(C)cc2)cc1	5	-1	0.0	x	-2.8
C[C@H](CO)N1C[C@H](C)[C@H](CN(C)Cc2ccccc2)Oc2ccc(NS(=O)(=O)c3cn(C)cn3)cc2C1=O	1	5	-1.3	i	-0.3
CC(C)NC(=O)Nc1ccc2c(c1)C(=O)N([C@@H](C)CO)C[C@@H](C)[C@H](CN(C)Cc1ccccc1)OCCCC[C@H](C)O2	1	4	-2.1	i	2.2&-3.4
CCCNC(=O)N1CC2(CCN(C(=O)C3CCC3)CC2)c2c([nH]c3cc(OC)ccc23)[C@H]1CO	-1	7	-2.5	i	2.4
CCCN(C)C[C@@H]1Oc2ncc(Br)cc2C(=O)N([C@H](C)CO)C[C@H]1C	1	9	-0.8	i	-1.3
O=C(Nc1nnc([C@@H]2C[C@H](O)[C@@H](CO)O2)s1)Nc1cccc(Cl)c1Cl	-11	-9	-0.8	i	0.4
O=C(NCC1CC1)[C@H]1[C@H](CO)[C@H]2Cn3c(ccc(-c4ccccc4)c3=O)[C@@H]1N2C(=O)C1CC1	1	-8	-0.5	i	-1.2
CCOC(=O)C(C)Oc1cccc2c(=O)n(CC(=O)Nc3ccc(OC)cc3)ccc12 (centres undefined)	0	3	-1.2	i	1.1
CC(=O)N1[C@H](CO)[C@H](c2ccc(C3=CCCC3)cc2)C12CN(C(=O)NC(C)C)C2	6	13	-1.8	i	1.4
CO[C@@H]1CN(C)C(=O)c2cc(NC(=O)C3CCOCC3)ccc2OC[C@@H](C)N(C(C)=O)C[C@H]1C	1	3	-1.9	i	-1.5
C[C@@H]1CN([C@@H](C)CO)C(=O)c2cccc(NS(=O)(=O)c3cn(C)cn3)c2O[C@@H]1CN(C)C(=O)Nc1ccc2c(c1)OCO2	6	13	0.8	i	-4.5
O=C([C@H]1[C@H](CO)[C@H]2Cn3c(ccc(-c4ccncc4)c3=O)[C@H]2N1Cc1cocn1)N1CCCCC1	3	2	0.2	i	3.1
C[C@H](CO)N1C[C@H](C)[C@@H](CN(C)Cc2ccc(Cl)c(Cl)c2)Oc2ccc(NS(=O)(=O)c3ccc(F)cc3)cc2C1=O	-4	-20	3.2	i	3.3
N#C[C@@H]1[C@@H](c2ccc(C#CC3(O)CCCC3)cc2)[C@@H](CO)N1C(=O)C1CC1	1	4	-0.6	i	-1.8
CCCN1C[C@@H](C)[C@@H](OC)CN(C)C(=O)c2ccc(NC(=O)CC(F)(F)F)cc2OC[C@@H]1C	1	6	-2.2	i	-1.7
C[C@@H]1CN([C@@H](C)CO)C(=O)Cc2cc(NC(=O)Nc3cccc4ccccc34)ccc2O[C@@H]1CN(C)S(=O)(=O)c1ccc(Cl)cc1	4	8	1.2	i	2.6
CCS(=O)(=O)N1CCC2(CC1)CN(C(=O)Cc1ccccn1)[C@@H](CO)c1[nH]c3cc(OC)ccc3c12	5	23	1.0	i	-1.4
C[C@H]1CN([C@@H](C)CO)C(=O)Cc2cc(NC(=O)Cc3cn(C)c4ccccc34)ccc2O[C@H]1CN(C)S(=O)(=O)c1ccccc1	3	5	-1.8	i	0.7
CN1C(=O)c2cc(NC(=O)c3cnccn3)ccc2OC[C@H]2O[C@@H](CC(=O)O)CC[C@@H]21	6	8	3.0	i	1.2
CC(C)Cn1c(SCC(=O)NC2CC2)nc2ccc(Cl)cc2c1=O	11	15	6.4	i	-2.5
O=C(Cc1ccccn1)NCC[C@H]1CC[C@H](NS(=O)(=O)c2ccc(F)cc2)[C@H](CO)O1	-1	-4	0.4	i	0.3
C[C@@H]1CN([C@H](C)CO)C(=O)CCCn2cc(nn2)CO[C@H]1CN(C)C(=O)Nc1ccc(F)cc1	12&3	4&3	2.9&-2.0	i	-0.7&-2.7&1.2
CC(C)[C@@H](C)NC(=O)N(C)C[C@@H]1OCc2ccccc2-c2ccccc2C(=O)N([C@@H](C)CO)C[C@H]1C	2	2	-2.1	i	-2.7
CO[C@@H]1CN(C)C(=O)c2cc(NC(=O)Cc3ccccc3)ccc2OC[C@H](C)NC[C@H]1C	2	4	-1.2	i	-1.1
CCCC(=O)Nc1ccc2c(c1)OC[C@@H](C)N(C(=O)CN1CCOCC1)C[C@@H](C)[C@H](OC)CN(C)C2=O	0	0	-1.1	i	-3.0
COc1ccccc1-c1ccc2n(c1=O)C[C@@H]1[C@@H](CO)[C@H](C(=O)NC3CCC3)N(C(=O)NC(C)C)[C@H]21	-3	1	-2.9	+	-1.4
O=C(C[C@@H]1C[C@H]2c3cc(NC(=O)Nc4ccc(C(F)(F)F)cc4)ccc3O[C@H]2[C@@H](CO)O1)NCc1ccccn1	-11	-29	10.0	i	5.2
CCOC(=O)C(CC1=CS(=O)(=O)c2ccc(Cl)cc21)(NC(C)=O)C(=O)OCC	4	4	-4.6	i	-0.5
FC(F)(F)c1ccccc1Cc1c(-c2cccc(Br)c2)nc2ccc(Br)cn12	4	-5	0.1	+	1.7
CO[C@H]1CN(C)C(=O)c2ccc(NC(=O)Nc3cccc(F)c3)cc2OC[C@@H](C)N(C)C[C@H]1C	0	3	-0.1	i	-4.6
COCC(=O)N1CC2(CN(Cc3nccs3)C2)c2c(n(C)c3cc(OC)ccc23)[C@H]1CO	1	-3	-2.8	i	0.4
C/C=C/c1ccc2c(c1)O[C@@H](CN(C)C(=O)CC)[C@@H](C)CN([C@@H](C)CO)S2(=O)=O	-3	4	-1.4	i	-1.5
COc1cc(-c2cnc3c(NC=O)cc(-c4ccsc4)cn23)cc(OC)c1OC	-1	-10	7.1	i	1.2
CCCC(=O)Nc1ccc2c(c1)C(=O)N(C)[C@H]1CC[C@@H](CC(=O)Nc3ccccc3)O[C@@H]1CO2	3	4	-1.6	i	1.9

(list continues)
SMILES	rRNA inh HTS	rRNA inh HTS OD600	rRNA inh HTS RFP	FGF22 binding	MLL AF4-AF9 inh
Cn1c(NCCc2ccncc2)nc2cc(-c3cccc(Cl)c3)sc2c1=O	0	3	4.0	i	1.6
C[C@@H]1CN([C@H](C)CO)C(=O)c2ccccc2-c2ccccc2CO[C@@H]1CN(C)Cc1ccccc1	-4	-53	29	i	-0.1
CC(=O)N1[C@@H]2Cn3c(ccc(-c4ccccc4)c3=O)[C@H]1[C@@H](C(=O)NCCCN1CCOCC1)[C@@H]2CO	4	14	0.2	i	1.3
CO[C@@H]1CN(C)C(=O)c2ccc(NC(=O)Nc3ccc(C(F)(F)F)cc3)cc2OC[C@H](C)NC[C@H]1C	-38	-61	45	i	3.1
Cn1cnc(S(=O)(=O)N2C[C@@H](O)COC[C@@H]3O[C@@H](CC(=O)NCc4cccc(F)c4)CC[C@H]32)c1	0	4	0.3	i	-2.1
CO[C@@H](CN(C)S(=O)(=O)c1ccc(C)cc1)[C@@H](C)CN(Cc1ccccc1Cl)[C@@H](C)CO	-1	-29	22	i	1.1
